VDR inhibitor – Inhibitors of the vitamin D receptor (VDR): qHTS; VDR-SRC2-3 peptide fluorescence polarization, 2 h; Potency, µM, inactives show max response, negative = inhibition, usual class: inhibitors; 0.93% of 400,000 active; Vitamin D3 receptor (Homo sapiens), P11473; active = well fitted inhibition curve with a large enough effect; inconclusive = small, poorly fitted or top-dose-only effect, or another doubt; inactive = no such curve, though single readings can be large or run the other way; also: series mostly up to about 120 µM
Target sequence (P11473 whole entry, looked up): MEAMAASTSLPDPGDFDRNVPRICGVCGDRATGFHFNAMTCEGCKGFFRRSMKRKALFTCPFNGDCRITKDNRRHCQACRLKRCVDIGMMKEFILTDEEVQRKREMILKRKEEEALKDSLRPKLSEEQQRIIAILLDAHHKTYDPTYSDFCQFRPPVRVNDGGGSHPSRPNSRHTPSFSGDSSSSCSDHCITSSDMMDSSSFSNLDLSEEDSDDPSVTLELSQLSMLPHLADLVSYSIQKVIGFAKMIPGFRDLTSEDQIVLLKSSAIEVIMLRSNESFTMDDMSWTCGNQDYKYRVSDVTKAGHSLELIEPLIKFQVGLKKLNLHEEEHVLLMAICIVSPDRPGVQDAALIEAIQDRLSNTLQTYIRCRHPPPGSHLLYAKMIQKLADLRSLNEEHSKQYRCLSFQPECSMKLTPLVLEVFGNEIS
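VDR–SRC2-3 interaction, FP format. Cmpds 23 nl via pintool, brief spin, 2 h ambient incubation.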
The depositor's hits bear a star; ? = inconclusive; & = joins results of further samples; [ ] = remark or other dose. % is scaled to controls: 0 for no effect and ±100 for the full control effect; potency is read from the fitted curve at half-maximal effect. This is a subset, so the mix of outcomes need not match the whole.

The opening 16 compounds, ahead of the listing:
SMILES	VDR inhibitor
CN1CCN(c2nc(-c3ccoc3)nc3ccccc23)CC1	-12%
CN(CC(=O)Nc1cccc(F)c1)C(=O)c1cccnc1Sc1ccccc1Cl	-6%
Cc1ccc(S(=O)(=O)NC(C)C(=O)Nc2cccc([N+](=O)[O-])c2)cc1 (stereo not given)	-2%
CCc1nn(CC(=O)NCCCN(C)Cc2ccccc2)c(=O)c2cc3sc(C)cc3n12	2%
O=C(CSc1nc(C2CC2)nc2ccccc12)Nc1cccc(O)c1	-17%
O=C(Nc1ccncc1)c1ccccc1[N+](=O)[O-]	-4%
CN1C[C@H]2CON(C)[C@H]2C[C@H]1c1cccc(-c2ccccc2)c1	-3%
CN(CCOc1ccc(-c2ccn(S(=O)(=O)c3ccc(Cl)cc3)n2)cc1)c1ccccn1	9%
CC1(C)CC(=O)c2c(O)cc(OCc3ccc(Br)cc3)cc2O1	-15%
CN1C(=O)CC(N2CCN(c3ccccc3)CC2)C1=O (stereo not given)	-3%
CN1CCN(C(=S)Nc2ccc(S(N)(=O)=O)cc2)CC1	-16%
O=C(NC(=S)Nc1cccc([N+](=O)[O-])c1)c1ccco1	-13%
CC(C)CN1C(=S)SC(C)(C)C1n1oc(=O)n(-c2ccc(Cl)cc2)c1=O (stereo not given)	-11%
Cc1ccc2c(c1)sc1nc(=O)n(-c3ccccc3)c(=O)n12	5%
O=C(CCCCn1c(=O)c2ccccc2n(CC(=O)NC2CCCC2)c1=O)NC1CCCC1	4%
Cc1ccc(-c2csc(NC(=O)COC(=O)c3cccc(S(=O)(=O)N4CCOCC4)c3)n2)cc1	9%

All compounds of this part, previewed entries included:
SMILES	VDR inhibitor
CN1CCN(c2nc(-c3ccoc3)nc3ccccc23)CC1	-12%
CN(CC(=O)Nc1cccc(F)c1)C(=O)c1cccnc1Sc1ccccc1Cl	-6%
Cc1ccc(S(=O)(=O)NC(C)C(=O)Nc2cccc([N+](=O)[O-])c2)cc1 (stereo not given)	-2%
CCc1nn(CC(=O)NCCCN(C)Cc2ccccc2)c(=O)c2cc3sc(C)cc3n12	2%
O=C(CSc1nc(C2CC2)nc2ccccc12)Nc1cccc(O)c1	-17%
O=C(Nc1ccncc1)c1ccccc1[N+](=O)[O-]	-4%
CN1C[C@H]2CON(C)[C@H]2C[C@H]1c1cccc(-c2ccccc2)c1	-3%
CN(CCOc1ccc(-c2ccn(S(=O)(=O)c3ccc(Cl)cc3)n2)cc1)c1ccccn1	9%
CC1(C)CC(=O)c2c(O)cc(OCc3ccc(Br)cc3)cc2O1	-15%
CN1C(=O)CC(N2CCN(c3ccccc3)CC2)C1=O (stereo not given)	-3%
CN1CCN(C(=S)Nc2ccc(S(N)(=O)=O)cc2)CC1	-16%
O=C(NC(=S)Nc1cccc([N+](=O)[O-])c1)c1ccco1	-13%
CC(C)CN1C(=S)SC(C)(C)C1n1oc(=O)n(-c2ccc(Cl)cc2)c1=O (stereo not given)	-11%
Cc1ccc2c(c1)sc1nc(=O)n(-c3ccccc3)c(=O)n12	5%
O=C(CCCCn1c(=O)c2ccccc2n(CC(=O)NC2CCCC2)c1=O)NC1CCCC1	4%
Cc1ccc(-c2csc(NC(=O)COC(=O)c3cccc(S(=O)(=O)N4CCOCC4)c3)n2)cc1	9%
Cc1ccc(NC(=O)CN(C)S(=O)(=O)c2cccs2)c(Br)c1	-6%
CCN(CC(=O)Nc1sc2c(c1C#N)CCCC2)Cc1nc2ccccc2c(=O)[nH]1	-4%
Cc1ccc(S(=O)(=O)c2c[nH]c3ccc(C)cc3c2=O)cc1	165%[activator]
COc1ccc(CC(=O)NCc2nnc(SCC(=O)Nc3nccs3)n2C)cc1	-3%
O=[N+]([O-])c1cc(C(F)(F)F)ccc1-n1nnc2ccccc21	-9%
COc1ccc(CN(Cc2ccc(OC)cc2)S(=O)(=O)c2ccc(-n3cnnn3)c(C)c2)cc1	4%
Cc1c(NC(=O)Nc2ccc(Cl)c(C(F)(F)F)c2)c(=O)n(-c2ccccc2)n1C	-16%
Nc1c(N(CCC2=CCCCC2)C(=O)COc2ccc(F)cc2)c(=O)[nH]c(=O)n1Cc1ccccc1	12%
CCC1Oc2ccc(C)cc2N(CC(=O)N(Cc2ccc(C)o2)C2CCCC2)C1=O (stereo not given)	?
Cc1nn2c(=O)cc(COC(=O)c3ccc(NC(=O)COc4ccc(C)c(C)c4)cc3)nc2s1	4%
Cc1ccc2c(c1)Cc1nc3ccccc3nc1-2	11%
COc1ccc(CNC(=O)c2ccc(CS(=O)(=O)c3ccccc3OC)o2)cc1	14%
COc1ccc(C)cc1NC(=O)CNC(=O)c1sc2ccccc2c1Cl	-12%
COc1ccc(NC(=O)c2ccccc2)cc1NS(=O)(=O)c1ccc(F)cc1	-2%
CCCNc1cc(=O)n(C)c(=O)n1C	-5%
CCN(C(=O)Cn1c(=O)oc2cc(S(=O)(=O)N3CCCC3)ccc21)c1cccc(C)c1	29%
CCN(C(=O)c1cc2c(=O)oc3ccc(C)cc3c2s1)c1cc(OC)ccc1OC	-10%
N#Cc1ccccc1S(=O)(=O)N1CCN(C(=O)[C@@H]2CCCN2C(=O)c2cccs2)CC1	-18%
O=C(O)COc1ccccc1/C=N/NC(=O)Cc1ccccc1	-10%
Cc1cccnc1NC(=O)C(C)Oc1ccccc1 (stereo not given)	14%
CC(=O)Nc1ccc(S(=O)(=O)N2CCN=C2c2ccccc2)cc1	-11%
COc1cccc(C=Nc2ccccc2C#N)c1O	2%
Cc1cc(Nc2ccc(Br)cc2)n2nc(C)nc2n1	-2%
COc1ccccc1CNc1nc(-c2ccco2)nn1S(=O)(=O)c1ccc2ccccc2c1	-4%
CN1CCC(N(C)CC(=O)Nc2ccc3c(c2)OC(F)(F)O3)CC1	9%
CC1(C)CC(=O)c2c(O)cc(OCC(=O)Nc3ccc(S(N)(=O)=O)cc3)cc2O1	1%
Cc1ccc(S(=O)(=O)c2cc3c(=O)n4ccccc4nc3n(C3CCCCC3)c2=N)cc1	-5%
CC(=O)Oc1cccc(/C=C2\C=C(c3ccc(C)cc3)OC2=O)c1	?
CSc1c(CN2CCN(C)CC2)c2ccccc2n1C	-6%
O=C1c2ccc(-c3ccc(Cl)c(C(F)(F)F)c3)cc2S(=O)(=O)c2cccc(C(=O)N3CCN(c4ncc(Br)cn4)CC3)c21	-5%
O=S(=O)(Nc1cccc2ccccc12)c1ccc2ccccc2c1	?
CCC(C)NC(=O)c1cnn2c1NC(c1cccs1)CC2C(F)(F)F (stereo not given)	-9%
Clc1cc2nc3ccccn3c2cc1Cl	10%
COc1ccc(C(=O)NC2CCCc3ccccc32)cc1[N+](=O)[O-] (stereo not given)	3%
CN(C)S(=O)(=O)c1cccc(NC(=O)Cc2ccc(Cl)cc2)c1	2%
COc1ccc(CNC(=O)CCS(=O)(=O)c2ccc3c(c2)NC(=O)CS3)cc1	4%
CCOc1ccc2ccccc2c1C(=O)N[C@@H]1C(=O)N2[C@@H]1SC(C)(C)[C@@H]2C(=O)O	-11%&3%&-17%
COc1ccc(N2C(=O)C3C(C2=O)C(C(=O)c2ccccc2)N2CCCC32)cc1 (stereo not given)	-9%
Cc1cccc(CCNC(=O)C2CCN(c3ncnc4c3nc3n4CCCCC3)CC2)c1	5%
Cc1cc(-c2nnc(CCC(=O)NCc3cc(F)cc(C(F)(F)F)c3)o2)no1	4%
O=C(Nc1ccc(Nc2ccccc2)cc1)Nc1ccccc1Cl	12%
Cc1ccccc1Nc1nnc(SCC2CCCCO2)s1 (stereo not given)	-6%
O=c1ccc(Br)c[nH]1	19%
CCC(C)NC(=O)C1CCN(C(=O)c2ccc(-n3ccc4ccccc43)s2)CC1 (stereo not given)	-3%
Going on with the list.
SMILES	VDR inhibitor
O=C(c1cnn2c(C(F)F)cc(-c3ccccc3)nc12)N1CCSCC1	3%
COc1ccc(NC(=O)C2C3C=CC4(O3)C2C(=O)N(CCN2CCCCC2)C4C(=O)NC2CCCC(C)C2C)cc1 (stereo not given)	14%
Cc1ccc(-c2cc(C(=O)N(Cc3ccccc3)Cc3ccco3)no2)cc1F	10%
CC(C)(C)[C@H]1C=C(C(=O)N2CCN(Cc3ccc4c(c3)OCO4)CC2)O[C@@H](OCc2ccc(CO)cc2)C1	-9%
COCC(C)n1c(C)cc(C(=O)COC(=O)c2n[nH]c3ccccc23)c1C (stereo not given)	-4%
O=C(CN1C(=O)NC2(CCCc3ccccc32)C1=O)NCC(F)(F)F (stereo not given)	-12%
CCOC(=O)c1csc(-c2ccc3c(c2)CCO3)n1	6%
COc1ccccc1C(=O)c1nc2ccccc2n1C	-3%
O=C1COc2ccc(C(=O)COC(=O)/C=C/c3ccco3)cc2N1	-7%
O=C(COC(=O)/C=C/C(=O)N1CCN(c2ccccc2)CC1)NC(c1ccccc1)c1ccccc1	-7%
COc1ccc(/C=C2\SC(=O)N(CCNC(=O)C3CCN(S(=O)(=O)c4cccs4)CC3)C2=O)cc1	-13%
O=C(COc1ccc(Cl)cc1)Nc1nnc(-c2ccco2)o1	7%
CC(C)C[C@@H](CC(=O)N[C@@H](CCC(=O)O)CC(=O)O)NC(=O)[C@@H]1CCCC[C@H]1NC(=O)C[C@@H](NC(=O)C[C@H](Cc1c[nH]c2ccccc12)NC(=O)[C@@H]1CCCC[C@H]1N)C(C)C	-9%
Cc1ccc(-n2c(C)cc(/C=C(\C#N)C(=O)NCC3CCCO3)c2C)cc1 (stereo not given)	5%
COCC(=O)N1CCC2(CC1)CCN(c1ccccc1)CC2	-2%
COc1cc(OC)cc(C(=O)OCC(=O)Nc2sccc2C(N)=O)c1	9%
COc1ccccc1OCC(=O)NNc1c2ccccc2nc2ccccc12	-10%
OCCC(O)CO (stereo not given)	9%&-16%&12%
c1ccc(CSc2nnc(-c3c[nH]c4ccccc34)o2)cc1	7%
O=C(CN1C(=O)C2C3c4ccccc4C(c4ccccc43)C2C1=O)Nc1cccc(C(=O)O)c1 (stereo not given)	-1%
Cc1ccc(C(=O)N/N=C/c2ccc([N+](=O)[O-])s2)cc1	-13%
Nc1ccc(SC(F)(F)F)cc1	8%
CC(=O)OCC1OC(OC(C)=O)C(NC(=O)Cc2ccccc2)C(OC(C)=O)C1OC(C)=O (stereo not given)	-22%
C=CCc1ccccc1OCC(O)CNC1CCCC1 (stereo not given)	7%
CCCCN(C(=O)Nc1ccc(OCC)cc1)C1CCN(C(C)=O)CC1	4%&11%
COc1ccc(NC(=O)COc2ccccc2Cc2ccccc2)cc1S(N)(=O)=O	-23%
N#CCCn1cc(/C=N/O)c(-c2ccccc2)n1	-3%
CCN1CCN(CC(O)COCCOc2ccc(Br)cc2)CC1 (stereo not given)	-23%
O=C(c1cccnc1)C1CCCN(Cc2nc(Cc3ccccc3)no2)C1 (stereo not given)	3%
O=C(CN1C(=O)CC(c2ccccc2)Sc2ccccc21)NCC1CCCO1 (stereo not given)	-20%
O=C1NC2(CCCC2)Oc2ccccc21	-7%
CCCCCCCN1C(Nc2ccccc2)=NC[C@@H]1CC(C)C	0%
CC(=O)c1cccc(CN2CCC(C(=O)Nc3cccc(-c4ccn[nH]4)c3)CC2)c1	-8%
Cc1cc(NC(=O)c2cccc(COc3ccc(Br)cc3)c2)no1	-27%
Cc1ccccc1C1C=C(c2ccc(Cl)cc2)Nc2nnnn21 (stereo not given)	9%
COc1ccc(CCN2CC(C(=O)NCc3ccco3)CC2=O)cc1OC (stereo not given)	0%
Cc1nc(Nc2ccc(S(=O)(=O)N3CCCC3)cc2)c2nnn(Cc3ccccc3)c2n1	4%
COc1cc(NC(=O)c2ncn(-c3ccccc3)n2)cc(OC)c1	-1%
Cc1cccc(Nc2nc(N)c([N+](=O)[O-])c(N3CCCC(C)C3)n2)c1 (stereo not given)	2%
COc1cccc(CNC(=O)CCCn2ncn3c(cc4occc43)c2=O)c1OC	3%
CCOC(=O)N1CCN(S(=O)(=O)N2CCCC(C(=O)NCc3cccc(OC)c3)C2)CC1 (stereo not given)	-2%&9%
Cc1ccc(-c2nnn(CC(=O)N(c3cnc4ccccc4c3)C(C(=O)NC3CCCC3)c3ccncc3)n2)o1 (stereo not given)	-14%
CC(C)CC(Nc1ncnc2scc(-c3ccccc3)c12)C(=O)O (stereo not given)	-21%
COc1ccc(-c2cc3cc(F)ccc3cn2)cc1	9%
CCC(=O)N1CCCc2cc(S(=O)(=O)N3CCC(C(=O)Nc4ccc(F)c(F)c4)CC3)ccc21	12%
CCC(=O)OCC(=O)Nc1cc(C)c(C)cc1[N+](=O)[O-]	-8%
O=S(=O)(Nc1ncccn1)c1ccc(NC(=S)NCc2cccnc2)cc1	8%
COc1ccc2oc3ccccc3c(=O)c2c1	-8%
Cc1ccc(S(=O)(=O)/C(C#N)=C/c2c(N3CC(C)OC(C)C3)nc3ccccn3c2=O)cc1 (stereo not given)	11%
COc1ccccc1CCn1c(=O)cnc2cncnc21	?
O=C(CN(c1ccccc1)S(=O)(=O)c1ccccc1)Nc1ccc(F)cc1	-2%
O=C1CCC(C(=O)N2CCN(c3ccccc3)CC2)CN1CC1CCCCC1 (stereo not given)	-26%
O=C(c1ccncc1)N1CCC2(CCN(Cc3nccs3)CC2)CC1	-5%
CCCNC(=O)c1ccc(N2CCC3(CC2)CC(c2cccc(Br)c2)=NO3)c(NC(=O)c2ccc(Cl)c([N+](=O)[O-])c2)c1	-1%
O=C(NCC1(c2ccccc2)CCCC1)c1ccc(Br)cc1	3%
COc1ccc(OC)c(C2CC(=O)c3c([nH]c(C(=O)OCC4CCCCC4)c3C)C2)c1 (stereo not given)	4%
Cc1ccc(/C=N\NC(=O)/C(=C\Nc2nccc(C)n2)NC(=O)c2ccccc2)cc1	24%
COc1ccccc1C(=O)Nc1ccc2nc(SCC(=O)N3CCCc4ccccc43)sc2c1	19%
COc1ccc(-n2cc(CNCc3cccnc3)c(-c3cccc(F)c3)n2)cc1	5%
CCOC(=O)C1=C(O)/C(=C/c2ccc(CNC(=O)C(=O)Nc3ccc(C)cc3)o2)N=C1C	14%
CC(C)(C)c1cc(C(=O)NNC(=O)c2ccc(Cl)cc2)no1	0%
COc1cc(CN2CCC(Cc3ccccc3)CC2)cc(OC)c1OC	-19%
